Compound activity as filed in PubChem BioAssay.
PrP UTR inh = inhibition of PrP 5' UTR reporter expression. cell-based PrP 5' UTR mRNA reporter, plate reader. inhibition, % (concentration not given with the values). 340,000 tested, 0.35% active. AID 488862, 2010;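 active = every replicate at 50% or more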;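 note: 0 = median of the neutral control wells; tested in H4 reporter cells; numbers are from one replicate; inactives centre near -14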
Mtb hypoxia rep = PubChem AID 1159583; M. tuberculosis hypoxia-regulated fluorescent reporter, fluorescence; fluorescence inhibition, % (no concentration beside the values); 300,000 tested, 0.1% active;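 active = 35 to 45% if threefold the growth effect, above 45% if 1.5-fold the growth effect; inactive = the rest, general growth blockers included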;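 note: wells of about 50 µL received 100 nL stock; 0% = vehicle wells and 100% = reference inhibitor wells; whole bacteria with a GFP reporter of the hypoxia response; strong numbers were not always called active; many hits fall short of the cut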
Sa RN4220 lethal = growth inhibition of S. aureus RN4220, primary screen, OD600; 16 h; 330,000 tested, 0.33% active; AID 1259311, 2017; inhibition, % (no concentration beside the values);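 active = z-score of -3 or lower and OD600 up to 0.18 on both plates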;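 note: plate controls were untreated cells for no effect and reference antibiotic for full effect; stock transfer was 100 nL into about 80 µL; one replicate is shown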
Autofluor counter = counter-screen for toxin protease inhibitors: compound fluorescence; fluorescence intensity (no concentration beside the values); 360,000 tested, 3.1% active; compound autofluorescence counterscreen, microsphere flow cytometry; active compounds read high;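 active = at least 3 SD above the mean of all compounds, about 16000 in these data; inconclusive = too few beads counted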;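 note: 100 nL of 1 mM stock went into each well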
Sa ugtP lethal = growth inhibition of ugtP-null S. aureus, primary screen, RN4220 ugtP deletion, OD600; 16 h; some inactives read as strong as hits; growth inhibition, % (concentration not given with the values); 330,000 tested, 0.54% active;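 active = z-score under -3 and OD600 up to 0.15 on both plates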;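 note: plate controls were untreated wells for no effect and antibiotic for full effect; wells of about 80 µL received 100 nL stock; the first replicate is given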
BJeLR viability = MLPCN primary cell-based screen for lethality selective to Ras in HRASV12 cells; BJeLR (HRASV12) viability, CellTiter-Glo ATP luminescence, 48 h; reference of the scale not given here; inhibition, % (no concentration beside the values); 300,000 tested, 0.17% active; AID 1554, 2009;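 active = replicate mean above 50%; inconclusive = above 50% but judged a plate artefact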;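 note: 50 nL library stock added to about 25 µL; numbers are from one replicate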
Mtb hypoxia rep growth = also measured in Mtb hypoxia rep; calls as there; growth inhibition, %; measured here: M. tuberculosis growth (absorbance);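 0% = vehicle and 100% = reference antibiotic; read after six days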
* marks the source's active call; other numbers are inactive results; u = inconclusive; x = no result given; & = joins results of further samples. The order is random; 4% or so of the library scored in one or more.

SMILES	PrP UTR inh	Mtb hypoxia rep	Mtb hypoxia rep growth	Sa RN4220 lethal	Autofluor counter	Sa ugtP lethal	BJeLR viability
COc1cc(OC)c(S(=O)(=O)Nc2ccccc2N2CCCCC2)cc1NC(C)=O	-5	14	5	4.7	4360	11	2
Cc1ccc(S(=O)(=O)N(C)CC(=O)Nc2cccnc2)cc1	-3	-1	-10	4.2	4381	4	-3
COc1ccc(C2(C(=O)Nc3ccc(OC)cc3OC)CCCC2)cc1	-31	15	15	6.0	2244	8	-4
COC(=O)C1=C(C(=O)OC)[C@@H]2N(Cc3ccccc3)c3ccccc3[C@@]23C[C@@H](C(=O)OC)N(C(=O)c2cc(C)oc2C)C3=N1	-6	x	x	x	4107	x	-7
C=CCN(C(=O)CCC(=O)Nc1cc(C)on1)C(C(=O)NC(C)(C)CC)c1cccc(OC)c1OC (configuration not stated)	-14	6	0	1.5	4198	8	-16
Cc1nc2c(=O)n(-c3ccc(F)cc3F)nc(C)c2s1	-15	-1	7	2.6	4350	5	-4
Cc1cccc(C(=O)Oc2ccccc2/C=N/NC(=O)c2ccc(NC(=O)C(C)(C)C)cc2)c1	-14	x	x	x	2324	x	-5
O=C(NCc1nc2ccccc2[nH]1)C1=C[C@H](C2CC2)C[C@H](OCc2ccc(CO)cc2)O1	-17	x	x	x	4094	x	9
CCN1C(=O)[C@H]2[C@@H](c3ccc(C)cc3)N3C(=O)N(c4ccc(OC)cc4)C(=O)[C@@]3(Cc3ccccc3)[C@H]2C1=O	14	x	x	x	4706	x	6
C=C(C(=O)c1ccccc1)C(C(=C)C(=O)c1ccccc1)c1ccc(OC)cc1	-7	2	10	3.4	5539	22	6
COc1ccc2sc(-c3ccc(SC)cc3)c(C=Cc3ccc(OC)c(OC)c3)c2c1	x	-3	5	-1.1	x	1	x
CCOC(=O)C1=C(O)C(=O)N(c2ccc(S(N)(=O)=O)cc2)C1c1ccc(Br)cc1 (configuration not stated)	-35	-2	2	-1.2	4515	0	13
Cc1c(CC(=O)O)c(=O)oc2c(C)c3occ(-c4ccc(F)cc4)c3cc12	-6	-1	11	95*	4096	100*	-6
CC1=C(C(=O)Nc2ccc(C(=O)N3CCN(c4ccccc4F)CC3)cc2)SCCO1	-5	1	-5	4.0	5559	6	-16
O=C(CN1CCN(C(C(=O)Nc2ccc(Cl)cc2C(F)(F)F)c2ccccc2)CC1)NC1CC1 (configuration not stated)	-2	-5	9	13	8819	-11	x
Cc1noc(C(=O)Nc2cc(Cl)ccc2O)c1Cl	-15	-1	-1	8.3	4424	-6	3
Cc1cc2[nH]c(=O)c(=O)[nH]c2cc1S(=O)(=O)N1CCN(c2cccc(C(F)(F)F)c2)CC1	7	-16	0	-2.7	4152	-5	6
CN(C(=O)COC(=O)c1ccc2ccccc2n1)C1CCCCC1	12	8	8	4.4	3544	0	x
Cc1ccsc1C(=O)C1CCCN(Cc2cn(C)nc2-c2ccccc2)C1 (configuration not stated)	-11	6	7	2.5	2561	1	-4
Cc1nc2ccccc2c2oc(C(=O)NCCN3CCN(C)CC3)cc12	-9	x	x	-1.6	5952	4	-2
COc1ccc(-c2noc(CCCc3ccccc3)n2)cc1OC	-18	17	7	0.8	3738	8	6
CCC(C)(C)N1CC(=O)N(Cc2ccccc2)C(c2ccc(OC)cc2)C1=O (configuration not stated)	-10	x	x	3.5	4422	0	-4
CCN(CC(=O)NCc1ccc(Cl)cc1)C(=O)CCC(=O)c1ccc(C)cc1	-8	-5	3	4.6	5802	4	-1
CC1CCN(C(=O)c2ccc(CNc3c(N4CCCC4)c(=O)c3=O)cc2)CC1	-23	x	x	3.2	5058	3	-5
O=C(COC(=O)C1CCN(C(=O)c2ccc(Cl)cc2)CC1)c1ccco1	2	-1	16	0.3	4062	1	-2
COc1ccccc1OCCOc1ccc(/C=C2\C(=N)N3N=C(S(C)(=O)=O)SC3=NC2=O)cc1	-20	x	x	6.3	3656	-10	8
Cc1cccc(-n2c(CN3C(=O)c4ccccc4C3=O)nc3ccccc3c2=O)n1	-11	x	x	-2.1	4676	9	x
O=C(OCCc1cc2ccccc2c(=O)o1)N1CCOCC1	-11	20	4	5.4	3953	8	x
CCOC(=O)N1CCN(C(=O)CS(=O)(=O)Cc2nc(-c3ccccc3C)oc2C)CC1	-13	8	1	7.5	4451	5	1
NS(=O)(=O)c1ccc(NC(=O)CCC(=O)c2cccs2)cc1	0	-7	-8	1.4	3209	-4	-10
Cc1cc(C)n2cc(CSCc3ccccc3)nc2n1	-22	-6	10	0.0	2556	0	0
O=C(Nc1ccc(F)cc1)N(CCCN1CCOCC1)Cc1cc2cc3c(cc2[nH]c1=O)OCCO3	0	16	13	-10	2124	-2	3
OC[C@H]1O[C@@H](Oc2ccc3cc(Br)ccc3c2)[C@H](O)[C@@H](O)[C@H]1O	-6	9	7	2.2	u	2	x
O=C(NC1CCCCC1)C(c1ccc(Cl)cc1)N(C(=O)c1cnccn1)c1ccc2c(c1)OCO2 (configuration not stated)	-8	1	17	4.1	10579	1	1
Nc1ccc(O)c([N+](=O)[O-])c1	-6	10	4	3.7	4284	16	x
O=C(N/N=C/c1cc(Br)cc(Br)c1O)c1cccc(N2CCCC2=O)c1	-18	x	x	x	3350	x	-15
O=C(NCc1ccco1)c1cc(=O)c2ccccc2o1	-18	8	-3	3.4	2534	4	5
O=C(Cn1ccc([N+](=O)[O-])n1)NCc1cccnc1	-6	-8	-10	2.3	4772	2	23
CCC(=O)NCCNc1nc2cc(C)cc(C)c2cc1C#N	-23	17	6	2.2	5348	-3	2
O=C(NNc1nc2ccc(F)cc2s1)c1cccc(F)c1	-24	-11	2	2.3	4269	-6	-12

A different layout for 6 compounds above.
| smiles | PrP UTR inh | Mtb hypoxia rep | Mtb hypoxia rep growth | Sa RN4220 lethal | Autofluor counter | Sa ugtP lethal | BJeLR viability |
| --- | --- | --- | --- | --- | --- | --- | --- |
| O=C(Nc1ccc(F)cc1)N(CCCN1CCOCC1)Cc1cc2cc3c(cc2[nH]c1=O)OCCO3 | 0 | 16 | 13 | -10 | 2124 | -2 | 3 |
| OC[C@H]1O[C@@H](Oc2ccc3cc(Br)ccc3c2)[C@H](O)[C@@H](O)[C@H]1O | -6 | 9 | 7 | 2.2 | u | 2 | x |
| O=C(NC1CCCCC1)C(c1ccc(Cl)cc1)N(C(=O)c1cnccn1)c1ccc2c(c1)OCO2 (configuration not stated) | -8 | 1 | 17 | 4.1 | 10579 | 1 | 1 |
| Nc1ccc(O)c([N+](=O)[O-])c1 | -6 | 10 | 4 | 3.7 | 4284 | 16 | x |
| O=C(N/N=C/c1cc(Br)cc(Br)c1O)c1cccc(N2CCCC2=O)c1 | -18 | x | x | x | 3350 | x | -15 |
| O=C(NCc1ccco1)c1cc(=O)c2ccccc2o1 | -18 | 8 | -3 | 3.4 | 2534 | 4 | 5 |

Carrying on:
SMILES	PrP UTR inh	Mtb hypoxia rep	Mtb hypoxia rep growth	Sa RN4220 lethal	Autofluor counter	Sa ugtP lethal	BJeLR viability
CCOP(=O)(OCC)c1nc(-c2ccc(C)cc2)oc1NCc1ccccc1	6	0	12	4.5	2227	-7	-3
O=C(OC(C(=O)NC1CCCC1)c1cccnc1)C1=Cc2ccccc2OC1 (configuration not stated)	-7	8	2	0.1	6174	25	-8
C=C1C[C@]2(O)[C@@]3(C)CCC(=O)C(C)(C)C3=C(O)C(=O)[C@@]2(C)[C@@H]2C(=O)O[C@@](C)(C(=O)OC)C(=O)[C@@]12C	-10	x	x	3.0	5579	6	0
Oc1ccc(Cl)cc1-c1cc(C(F)(F)C(F)F)nc(-c2ccccc2)n1	-36	3	15	-9.6	5014	-18	2
COc1ccc(S(=O)(=O)N2CCN(CC(=O)Nc3cccc(OC)c3)CC2)cc1	-23	-1	-1	1.6	4975	-6	7
CCOc1cc(C=NNC(=O)c2ccc(N(C)S(=O)(=O)c3ccccc3)cc2)ccc1OC	x	-8	-1	1.0	x	2	x
CC(Sc1ccc(Cl)cc1)C(=O)NCC(c1ccco1)N1CCCCC1 (configuration not stated)	-17	3	8	4.4	5616	3	3
O=C(Nc1nnc(-c2ccc(Cl)cc2)o1)C1=COCCO1	-9	-7	-5	11	1957	-14	-23
CCOc1ccc(Cl)cc1CNCCNCCO	-6	6	13	6.7	11219	2	-4
Cc1ccc(-n2nnnc2SCC#N)cc1	-8	3	7	4.4	3322	12	9
O=C1NNC(c2ccccc2)=N/C1=C\c1ccccc1	-18	1	12	4.2	6166	1	3
O=C(NNS(=O)(=O)c1ccccc1C(F)(F)F)c1cc2ncc(C(F)(F)F)cc2s1	x	9	-1	0.2	x	6	2
O=C(NCCN1CCOCC1)c1ccc(NS(=O)(=O)c2ccccc2)cc1	-2	13	7	3.0	5323	1	-3
COc1ccccc1NC(=O)CCC(=O)OCc1cccc([N+](=O)[O-])c1	-18	-5	-2	1.8	2205	-3	1
O=C(NC1CCCCC1)NC1CCN(S(=O)(=O)Cc2ccccc2)CC1	-10	7	1	5.3	4424	9	-2
CC(c1ccco1)N(C(=O)c1ccc(Cl)s1)c1ccccn1 (configuration not stated)	x	5	5	2.5	x	1	-9
N#Cc1ccccc1OCC(=O)NNC(=O)c1ccncc1	-22	4	3	2.2	3827	5	x
CC(=O)c1cccc(NC(=O)N2CCCC2C(=O)NCc2ccc3c(c2)OCO3)c1 (configuration not stated)	-3	0	2	10	4147	5	-8
COc1ccc(OCCC(=O)OCC(=O)Nc2ccc(S(=O)(=O)N3CCOCC3)cc2)cc1	-18	-7	-12	2.0	3756	-8	5
CS/C(=N\S(=O)(=O)c1cccs1)Nc1ccc(N2CCOCC2)cc1	-21	x	x	x	8020&3046	x	-3
Cc1cc(C(=O)COC(=O)C2=COCCO2)c(C)n1-c1cccc(F)c1	-56	5	2	4.0	u	7	0
CSC(=NS(=O)(=O)c1ccccc1)SC	0	5	11	0.2	2941	-4	-16
CN(C)CCN1C(=O)c2oc3ccccc3c(=O)c2C1c1cccc(Br)c1 (configuration not stated)	-13	2	9	1.8	11184	-9	4
CC(Cc1n[nH]c(=S)n1N)c1ccccc1 (configuration not stated)	1	15	7	0.8	3691	0	10
Cc1c(NC(=O)c2ccc(-c3ccccc3)cc2)cccc1C(=O)O	-78	5	2	4.7	4141	5	2
Cn1c(=O)c2c(-c3ccccc3)n(-n3cnnc3)cc2n(C)c1=O	-24	0	5	-1.0	2918	-5	-2
CC1(C(=O)NCc2cc(F)cc(C(F)(F)F)c2)C=CC2(CCCCC2)N1C(=O)c1ccccc1 (configuration not stated)	-9	5	-6	-0.2	3715	1	x
N#Cc1c(NC(=O)c2ccco2)sc2c1CCC2	-97	1	2	0.9	14998	1	-6
Cc1cc(C)c(S(=O)(=O)N2CCOC2CNC(=O)C(=O)NCc2ccccn2)c(C)c1 (configuration not stated)	-13	-3	-4	0.8	u	6	10
Cc1cc(=O)oc2cc(OCC(=O)N3CCCc4ccccc43)ccc12	-18	-3	10	1.1	2959	-7	1
COc1ccc(Cl)cc1NC(=O)CN(C)C(=O)c1cccc(-n2cnnn2)c1	-11	7	1	4.0	2838	5	x
CCOC(=O)c1c(C)n(OCc2ccccc2)c2ccc3nonc3c12	-28	6	10	9.3	10562	-18	2
C[C@H](CO)N1C[C@H](C)[C@@H](CN(C)S(=O)(=O)c2ccccc2)Oc2c(cccc2N(C)C)C1=O	-20	-3	16	-13	3780	-8	x
COc1ccc(N2CCN(CCCNC(=O)C3CCCN(S(=O)(=O)c4cnc[nH]4)C3)CC2)cc1 (configuration not stated)	-17	x	x	1.2	6010	2	-1
COc1ccc(OC)c(NC(=S)NCCN2CCOCC2)c1	-13	-5	-12	-2.7	2392	4	2
Cc1ccc(-n2ncc(C#N)c2N=CN(C)C)cc1	x	4	6	3.9	x	-2	x
CCN(C(=O)CSc1nnc(-c2c[nH]c3ccccc23)n1C1CC1)C1CCS(=O)(=O)C1 (configuration not stated)	-25	7	6	9.2	5819	1	x
Cc1cc(NC(=O)COC(=O)C2CC(=O)N(c3ccc(Br)cc3)C2)no1 (configuration not stated)	-26	-1	-5	-1.5	3742	10	-12
CCCc1cc(=O)n2[nH]c(C(F)(F)F)nc2n1	-31	4	14	4.6	3903	3	7
O=C(Nc1ccc2c(c1)C(=O)OC2)c1ccc(F)cc1F	-31	-3	-4	4.7	x	4	7
CCCS(=O)(=O)c1nc(S(=O)(=O)c2ccc(C)cc2)c(N2CCCC2)s1	-20	8	-1	-20	3218	1	3
COC(=O)c1cccc(NC(=O)CC2NCCNC2=O)c1 (configuration not stated)	-15	-8	6	-1.0	6104	-7	-4
